Screening results: PubChem, National Center for Advancing Translational Sciences (NCATS)
VDR inh = vitamin D3 receptor (human) inhibition; Potency, µM, for inactives: max response, negative = inhibition, most hits filed as inhibitors; 400,000 tested, 0.93% active; VDR-SRC2-3 peptide fluorescence polarization, 2 h; AID 504847; P11473; active = well fitted inhibition curve with a large enough effect; inconclusive = small, poorly fitted or top-dose-only effect, or another doubt; inactive = no such curve, though single readings can be large or run the other way; also: series mostly up to about 120 µM
Target sequence (P11473 whole entry, looked up): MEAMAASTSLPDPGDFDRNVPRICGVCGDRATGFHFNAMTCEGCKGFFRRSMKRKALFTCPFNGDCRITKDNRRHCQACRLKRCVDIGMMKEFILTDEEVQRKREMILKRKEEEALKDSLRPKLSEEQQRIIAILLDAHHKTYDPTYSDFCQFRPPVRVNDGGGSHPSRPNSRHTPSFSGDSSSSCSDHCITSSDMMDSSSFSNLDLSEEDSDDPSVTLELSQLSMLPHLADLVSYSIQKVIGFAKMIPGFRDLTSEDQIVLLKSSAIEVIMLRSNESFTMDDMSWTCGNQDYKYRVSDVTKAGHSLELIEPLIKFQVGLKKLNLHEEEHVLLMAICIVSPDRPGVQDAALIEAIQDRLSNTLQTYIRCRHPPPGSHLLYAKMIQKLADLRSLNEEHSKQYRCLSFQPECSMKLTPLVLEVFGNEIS
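FP read-out; VDR + SRC2-3 coactivator peptide; 23 nl compound by pintool; 2 h RT incubation; reagents held at 4 deg C, protected from light.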
Numbers without * were called inactive; ? = inconclusive; & = joins results of further samples. % is scaled to controls: 0 for no effect and ±100 for the full control effect; potency is read from the fitted curve at half-maximal effect.

SMILES	VDR inh
CC(C)c1ccc(NC(=O)c2cnc3sc(N4CCCC4)nn3c2=O)cc1	10%
COc1cccc(C(=O)NC(=S)Nc2ccc3oc(=O)ccc3c2)c1	2%
C/C(=N\O)c1ccccc1C(=O)O	16%
CC(=O)c1cccc(N=Nc2c(-c3ccccc3)[nH]n(-c3ccccc3)c2=O)c1	-7%
Cc1cccc(-c2nnc(SCc3nc4ccccc4[nH]3)n2Cc2ccco2)c1	-2%
Cc1ccccc1CNC(=O)c1ccc2nc(N3CCOCC3)sc2c1	-1%
CCOc1cccc2oc(-c3ccccc3Cl)cc(=O)c12	-13%
COc1ccc(OC)c(S(=O)(=O)N2CCCC2C(=O)N2CCc3ccccc3C2)c1 (stereo unspecified)	2%
Cc1ccccc1OCCN(C#N)c1nc(N(C)C)nc(N(C)C)n1	-3%
O=C(CCNS(=O)(=O)c1ccccc1)N1CCCCCCC1	-1%
CCc1nnc2c3ccccc3nc(N3CCN(c4ccc(C)cc4C)CC3)n12	-8%
COC(=O)[C@@H]1CCCN1C(=O)c1ccc(OC2CCN(Cc3ccccn3)CC2)cc1	19%

Reformatted as labelled records: part of the list above
canonical_smiles: COc1ccc(OC)c(S(=O)(=O)N2CCCC2C(=O)N2CCc3ccccc3C2)c1 (stereo unspecified)
  VDR inh: 2%
canonical_smiles: COc1cccc(C(=O)NC(=S)Nc2ccc3oc(=O)ccc3c2)c1
  VDR inh: 2%
canonical_smiles: Cc1ccccc1CNC(=O)c1ccc2nc(N3CCOCC3)sc2c1
  VDR inh: -1%
canonical_smiles: CC(=O)c1cccc(N=Nc2c(-c3ccccc3)[nH]n(-c3ccccc3)c2=O)c1
  VDR inh: -7%

New compounds follow
SMILES	VDR inh
COc1ccc(OC)c(CNC(=O)c2ccc(Sc3ccc(C)cc3)c(N)c2)c1	1%
Cc1cc(C(=O)Nc2cc(Br)ccc2O)on1	-3%
N#Cc1c(NC(=O)CSc2n[nH]c(Cc3ccccc3)n2)oc(-c2ccccc2)c1-c1ccccc1	-16%
Cc1cc(C(=O)N2CCN(c3ccccc3O)CC2)c(C)o1	-9%
CCOC(=O)CN1C(=O)S/C(=C\c2ccc3c(c2)OCO3)C1=O	-11%
Cc1ccc(OCc2ccoc2C(=O)O)cc1C	-15%
Cc1cc(C)n(-c2ccc(C(=O)Nc3cccc(S(=O)(=O)N4CCCC4)c3)cc2)n1	12%
Cc1cc(C)n(CC(=O)N2c3ccccc3Sc3ccccc32)n1	3%
CCOC(=O)c1ccc(NC(=O)CSc2nc(-c3ccc(F)cc3)cc(C(F)(F)F)c2C#N)cc1	-5%
COc1ccc(NC(=O)COC(=O)Cc2c[nH]c3ccccc23)cc1OC	-20%
O=C(O)[C@@]1(CCCCCCOc2ccc(Cl)cc2)CO1	-1%
COc1ccc(OC)c(-n2nnnc2SCC(=O)NCCc2ccccc2)c1	13%
Cc1ccc(Cl)cc1NC(=O)N1CCc2cc(S(=O)(=O)N3CCC(C)CC3)ccc21	19%
CCc1ccccc1NC(=O)COc1ccc(C(=S)N2CCCC2)cc1	-17%
Cc1nc(-c2coc3c(CN(C)C)c(O)ccc3c2=O)cs1	-10%
CCc1nnc(NS(=O)(=O)c2ccc(N/C=C\C(=O)c3cccc(OC)c3)cc2)s1	2%
CCCc1nc(Cl)c(C#N)c2c1CCCC2	-7%
Cc1ccc(-c2cc(C(F)(F)F)n3ncc(C(=O)N4CCCc5ccccc54)c3n2)cc1	2%
CC(C)N(CCO)C(=O)CCc1nnc(Cc2cccc(C(F)(F)F)c2)o1	-26%
C/C(=N\NC(=O)C1CCCN(S(=O)(=O)c2ccccc2)C1)c1cccnc1 (stereo unspecified)	14%
CCOc1ccc(S(=O)(=O)N2CCN(C(=O)c3cccn3C)CC2)cc1	-4%
COc1ccccc1CN1CCCC2(CCN(C(=O)c3cc(C(F)(F)F)cc(C(F)(F)F)c3)CC2)C1	3%
COc1cc2nc(N3CCN(C(=O)OCc4ccccc4)C(C(=O)NC(C)(C)C)C3)nc(N)c2cc1OC (stereo unspecified)	6%
O=[N+]([O-])c1cccc(/C=C2\CCC(/C=N/Nc3ccc4ccccc4n3)=C2N2CCOCC2)c1	-1%
CCS(=O)(=O)c1nc(S(=O)(=O)c2ccc(Cl)cc2)c(NCCN2CCOCC2)s1	7%
O=C(Cn1cc2c(n1)CCCCC2)Nc1ccccc1Br	-12%
O=C(O)c1ccc(-n2nnnc2Oc2ccccc2C(=O)N2CCOCC2)cc1	1%
CCN(CC)C(=O)n1cnc(-c2ccccc2)c1-c1ccccc1	13%
COc1cccc(NS(=O)(=O)c2cc(-c3cnc(C4CC4)o3)ccc2C)c1	15%
CC(c1ccco1)N(C(=O)c1cccs1)c1ccccn1 (stereo unspecified)	-2%
CCCCN(C(=O)c1ccc2c(c1)OCO2)c1ccccc1	-20%
CCC1CN(S(=O)(=O)c2cc(-c3cc(C)no3)ccc2C)c2cc(Cl)ccc2O1 (stereo unspecified)	12%
Cc1ccc(C2=NN(C(=O)CCC(=O)O)C(c3ccc4c(c3)OCO4)C2)cc1 (stereo unspecified)	-20%
COCCOC(=O)/C=C1/NC(=O)CS1	9%
O=S(=O)(Nc1cccc(-c2nc3cccnc3s2)c1)c1cccs1	-14%
O=C(CCN1CCN(c2ccccc2F)CC1)Nc1ccccc1F	1%
COc1ccc(S(=O)(=O)N2CCC(N3CCN(Cc4ccccc4)CC3)CC2)cc1	-25%
CCOc1ccccc1NC(=O)c1c2c(nc3ccccc13)C(=O)N(C1CCCCC1)C2	7%
CCCc1noc(-c2ccc(NCc3ccc(C)cc3)c([N+](=O)[O-])c2)n1	18%
COc1ccc(CCCc2nnc(SCC(=O)Nc3ccc(OC)cc3)o2)cc1	19%&-14%
Cc1ccc(NC(=O)CCC(=O)c2ccc(F)cc2)cc1Cl	5%
CS(=O)(=O)N(CC(=O)Nc1ccc(F)cc1)C1CCCCC1	-20%
COc1cc2c(cc1NC(=O)Nc1ccc(C)cc1)oc1ccccc12	4%
CCCOc1ccccc1C1NC(=O)NC(C)=C1C(=O)OCCOCC (stereo unspecified)	-3%
O=C(Nc1nc(C2C3CC4CC(C3)CC2C4)cs1)c1cc2cc([N+](=O)[O-])ccc2oc1=O (stereo unspecified)	-17%
NS(=O)(=O)c1cccc(NC(=O)Cn2nc(C(=O)O)c3ccccc3c2=O)c1	11%
O=C(CCc1nc2ccccc2c(=O)[nH]1)Nc1cccc(S(=O)(=O)N2CCCCC2)c1	-10%
Cc1ccc(NC(=S)NNc2ncc(C(F)(F)F)cc2Cl)cc1	-24%
O=C(O)c1ccc2c(=O)[nH]c(CCl)nc2c1	-15%
Cc1ccc(CSCCNS(C)(=O)=O)cc1	-1%
CCN1C(=O)[C@@H]2[C@@H](c3ccc(-c4ccc(C(C)=O)cc4)cc3)N3CCCC[C@@]3(C(=O)OC)[C@@H]2C1=O	-16%
CCCn1c(=O)c2sccc2n2c(CCCC(=O)N3CCN(c4ccccc4)CC3)nnc12	-1%
COc1ccnc(Oc2ccc(F)cc2)c1C(=O)N/C=N/OCc1ccc(F)cc1Cl	-11%
O=C(CSc1nnc(SCc2ccc(Cl)cc2)s1)N/N=C/c1ccccc1C(=O)O	-7%
CN(CCC#N)Cc1cc(=O)oc2ccc3ccccc3c12	-5%
O=C1OC(N2CCN(C(=O)C3CCCO3)CC2)c2ccccc21 (stereo unspecified)	-2%
O=C(/C=C/c1ccc(OC2CSC2)cc1)c1ccccc1	?
COC(=O)c1ccc(CSC2=NC[C@@H]3[C@@H]4C(=O)N(Cc5ccccc5)C(=O)[C@@H]4[C@](Cc4ccccc4)(C(=O)OC)N23)cc1	-6%
COc1c(C)cccc1C(=O)NC(=S)Nc1cccc2nsnc12	-11%
CC(=O)N(Cc1ccccc1)c1ccccc1C(=O)O	-8%

Next part
SMILES	VDR inh
CCN(c1ccccc1)S(=O)(=O)c1cccc(C(=O)N(C)CCOc2ccccc2)c1	-25%
CCCCc1n[nH]c2c1C(=O)CC(C)(C)C2	-17%
CCc1n(CC(O)COC2CCCCC2)c2ccccc2[n+]1C (stereo unspecified)	-4%
COc1ccc(CNC(=O)c2nnn(-c3cccc(C(F)(F)F)c3)c2N)cc1	5%
CC1(C)CC2CN(C(=O)Cc3ccccc3)C(C)(C2)C1 (stereo unspecified)	-10%
Cc1ccc(S(=O)(=O)N/N=C/c2ccc(O)cc2O)cc1[N+](=O)[O-]	1%
Cc1ccc(C(=O)Nc2cccc(OCc3cc(=O)n4c5c(sc4n3)CCCC5)c2)cc1	-8%
CCC(C)(C)C1CCc2[nH]nc(C(=O)NCCN3CCOCC3)c2C1 (stereo unspecified)	2%
COc1ccc(NC(=O)NNC(=O)c2ccc(-c3ccccc3)cc2)c(OC)c1	11%
CC(=O)c1cc2c(cc1NC(=O)c1cc3nc(C(C)C)cc(C(F)(F)F)n3n1)OCO2	25%
c1ccc(Nc2ncnc3ccc(-c4ccc5c(c4)OCO5)cc23)cc1	0%
COc1cccc(-c2c(-c3cc(OC)cc(OC)c3)n(C)c3ccc(-c4ccc(OC)nc4)cc23)c1	?

An excerpt of these results, with values ahead of the structure.
VDR inh	molecule
19%	COC(=O)[C@@H]1CCCN1C(=O)c1ccc(OC2CCN(Cc3ccccn3)CC2)cc1
1%	COc1ccc(OC)c(CNC(=O)c2ccc(Sc3ccc(C)cc3)c(N)c2)c1
-3%	Cc1cc(C(=O)Nc2cc(Br)ccc2O)on1
-16%	N#Cc1c(NC(=O)CSc2n[nH]c(Cc3ccccc3)n2)oc(-c2ccccc2)c1-c1ccccc1
-9%	Cc1cc(C(=O)N2CCN(c3ccccc3O)CC2)c(C)o1
-11%	CCOC(=O)CN1C(=O)S/C(=C\c2ccc3c(c2)OCO3)C1=O
-15%	Cc1ccc(OCc2ccoc2C(=O)O)cc1C

Next section.
SMILES	VDR inh
O=C(Nc1ccccc1Cl)c1cc(S(=O)(=O)N2CCCC(C(=O)O)C2)ccc1F (stereo unspecified)	19%
COc1ccc(NC(=S)N2CCC(C(=O)c3ccc(C)cc3)CC2)cc1	?
O=C(NNc1c(Cl)cc(Cl)cc1Cl)C1CCC1	0%
N#C/C(=C\c1c(N2CCN(Cc3ccccc3)CC2)nc2ccccn2c1=O)S(=O)(=O)c1ccccc1	0%
Cc1ccc(CCNC(=O)c2nnc(CS(=O)(=O)c3ccccc3)o2)cc1	-6%
Cc1nn(C)c(Oc2ccccc2)c1CCNC(=O)CCl	0%
O=C(NCCc1ccccc1)C(=O)NCC(c1cccs1)S(=O)(=O)c1cccs1 (stereo unspecified)	0%
Cc1ccc(NC(=O)C2CCN(S(=O)(=O)c3ccc4c(c3)CCCC(=O)N4)CC2)c(Cl)c1	9%
O=C(Nc1ccc(Br)cc1)C1CCN(c2cnccn2)CC1	1%&13%
C=CC[C@@H](CC(=O)N[C@H](CO)Cc1ccccc1)C(=O)N[C@H](COC(=O)[C@@H](CC=C)Cc1ccc(F)cc1)C(C)(C)C	2%
C/C(=N\O)C(C)Oc1ccc(Cl)cc1 (stereo unspecified)	8%
CCc1ccc(C(=O)O)cc1	0%

Ordered by length of the SMILES (lowest first): part of the list above.
SMILES	VDR inh
CCc1ccc(C(=O)O)cc1	0%
C/C(=N\O)C(C)Oc1ccc(Cl)cc1 (stereo unspecified)	8%
Cc1ccc(CCNC(=O)c2nnc(CS(=O)(=O)c3ccccc3)o2)cc1	-6%
N#C/C(=C\c1c(N2CCN(Cc3ccccc3)CC2)nc2ccccn2c1=O)S(=O)(=O)c1ccccc1	0%

Continuation.
SMILES	VDR inh
Cc1cccc(NC(=O)c2cccc(S(=O)(=O)N3CCCC3)c2)n1	-4%
COc1ccc(-n2ccnc(SCC(=O)NC3CCCC3)c2=O)cc1	-15%
CCc1ccc(NC(=O)C(CC)n2nnc(C(=O)OC)c2C(=O)OC)cc1 (stereo unspecified)	12%
CN1CCN(C2=C(Cl)C(=O)c3ccccc3C2=O)CC1	50µM*
CCSc1nnc(NC(=O)c2ccc(C)cc2)s1	-1%
CCc1nnnn1-c1ccc([N+](=O)[O-])cc1C	-4%
CCN(CC)S(=O)(=O)c1ccc(=O)n(CC(=O)N2CCCc3cc(C)ccc32)c1	24%
Cc1nc(N2CCN(c3ccccc3)CC2)[nH]c(=O)c1C	5%

Only part of the results is shown (hit frequency here may not be typical).
